# Assay outcomes as filed in PubChem BioAssay.
# Mtb H37Rv: M. tuberculosis H37Rv growth inhibitors, H37Rv strain (AID 1626); M. tuberculosis H37Rv growth inhibition; higher % means a stronger effect; one-dose inhibition, % at 10 µM; IC50 in µM for titrated hits; 0.95% of 220,000 active;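 active means confirmed in a dose series; inconclusive means inhibition above 80% but not taken into the dose series; inactive means below 80% or under 30% at every dose of the series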;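 further: bacteria incubated seven days before Alamar blue readout; 0% = bacteria only wells and 100% = bacteria with antibiotic wells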
# YopH PTP inh: YopH tyrosine phosphatase inhibitors, primary screen, biochemical, fluorescence Ex485/Em525. inhibition, %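 (about 10 µM by stock and volumes)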. YopH tyrosine phosphatase [Yersinia enterocolitica]. 0.16% of 140,000 active. AID 898, 2007;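 active means inhibition of 50% or more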;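 further: controls were vehicle for no effect and minimum signal wells for full effect; inactives centre near -20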
# Arbovirus inh: antivirals against arbovirus infection, primary screen, cell-based, full library, 10K replicate subset; inhibition, % at 10 µM; AID 1251, 2008; 0.37% of 200,000 active; arbovirus infection cell-based antiviral screen;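 active means inhibition from about 30%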;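 further: bluetongue infection of BSR cells; cell survival read as ATP light after 72 h; 0% = infected wells without compound and 100% = uninfected wells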
# RecA intein inh: Mtb RecA intein splicing inhibitors, primary screen, biochemical, fluorescence, HTS | Protein RecA (Mycobacterium tuberculosis (strain ATCC 25618 / H37Rv)), P9WHJ3 | cell-free RecA intein splicing | inhibition, %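 (about 9 µM by stock and volumes)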 | 0.75% of 290,000 active | AID 2221, 2009; in the data active means inhibition above about 30%; inconclusive means no clear call, values can overlap the other calls;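 further: 0% = vehicle wells and 100% = reference inhibitor control wells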
# Target sequence (P9WHJ3 whole entry, looked up): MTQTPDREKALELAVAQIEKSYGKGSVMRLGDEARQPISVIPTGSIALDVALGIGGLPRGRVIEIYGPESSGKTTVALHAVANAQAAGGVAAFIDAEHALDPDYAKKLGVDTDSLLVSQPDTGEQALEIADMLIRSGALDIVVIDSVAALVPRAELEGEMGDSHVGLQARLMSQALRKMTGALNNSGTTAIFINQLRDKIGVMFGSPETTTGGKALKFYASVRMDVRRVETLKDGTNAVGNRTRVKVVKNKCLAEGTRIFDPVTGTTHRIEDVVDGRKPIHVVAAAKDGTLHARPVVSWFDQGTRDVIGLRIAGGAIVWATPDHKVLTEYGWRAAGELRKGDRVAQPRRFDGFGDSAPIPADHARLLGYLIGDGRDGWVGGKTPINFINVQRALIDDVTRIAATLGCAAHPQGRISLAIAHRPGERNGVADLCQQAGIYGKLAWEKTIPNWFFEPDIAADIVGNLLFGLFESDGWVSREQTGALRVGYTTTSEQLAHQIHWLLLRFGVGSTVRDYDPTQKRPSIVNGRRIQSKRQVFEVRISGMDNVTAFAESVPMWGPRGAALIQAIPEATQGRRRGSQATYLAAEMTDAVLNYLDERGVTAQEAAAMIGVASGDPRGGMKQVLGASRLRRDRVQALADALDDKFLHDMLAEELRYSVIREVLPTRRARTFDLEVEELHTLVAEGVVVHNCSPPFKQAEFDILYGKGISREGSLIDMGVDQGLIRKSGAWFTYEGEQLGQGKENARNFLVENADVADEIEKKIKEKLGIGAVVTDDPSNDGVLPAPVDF
# Mtb bLac sens: beta-lactam sensitization of Mtb H37Rv, H37Rv | AID 434955, 2010 | M. tuberculosis H37Rv growth with meropenem, percent inhibition; hits of this screen are not shown here | 0.27% of 330,000 active | inhibition, % at 25 µM;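 active means about 74% or more and at least 40 points above the plate without the antibiotic, then above 30% in a dose series; inconclusive means first-round hits that could not be retested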;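 further: growth measured after seven days incubation then overnight dye step; 0% = bacteria only wells and 100% = bacteria with antibiotic; twin plates without the antibiotic show which effects depend on it; some results filed as inactive read as strong as hits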
# Arbovirus inh repeat: further read-out of Arbovirus inh, marked with its call; inhibition, %; measured here: 10K subset replicate screen; many hits read low in the repeat;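 first of two repeat runs on a subset; 0% = infected and 100% = uninfected wells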
# The depositor's hits bear a star; ? = inconclusive; . = no result given. An excerpt, so the mix of outcomes need not match the whole.
# Start of the data: the first 3 compounds as a preview:
SMILES,Mtb H37Rv,YopH PTP inh,Arbovirus inh,RecA intein inh,Mtb bLac sens,others
Cc1cc(C(F)(F)F)n2nc(-c3cnn(C)c3C(F)(F)F)c(Cl)c2n1,-2%,-34,-3,0.4,7,
CC1CCCC(C(=O)O)N1C(=O)CCSSCCC(=O)N1C(C)CCCC1C(=O)O (centres undefined),-2%,-13,4,-0.6,3,
COc1cccc(-n2c(CCn3nc(C)c([N+](=O)[O-])c3C)n[nH]c2=S)c1,-11%,-11,1,-0.1,-1,

# The listing, previewed entries included:
SMILES,Mtb H37Rv,YopH PTP inh,Arbovirus inh,RecA intein inh,Mtb bLac sens,others
Cc1cc(C(F)(F)F)n2nc(-c3cnn(C)c3C(F)(F)F)c(Cl)c2n1,-2%,-34,-3,0.4,7,
CC1CCCC(C(=O)O)N1C(=O)CCSSCCC(=O)N1C(C)CCCC1C(=O)O (centres undefined),-2%,-13,4,-0.6,3,
COc1cccc(-n2c(CCn3nc(C)c([N+](=O)[O-])c3C)n[nH]c2=S)c1,-11%,-11,1,-0.1,-1,
C/C(=N\NC(=O)CNc1cccc(C(F)(F)F)c1)c1ccc(Br)cc1,3%,-26,1,0.3,0,
COc1ccc(S(=O)(=O)N2CCN(c3ccc(F)cc3)CC2)cc1OC,.,.,.,-1.3,2,
Cc1nn(S(=O)(=O)c2cccc([N+](=O)[O-])c2)c(C)c1S(=O)(=O)N1CCOCC1,.,.,.,-0.5,1,
Cc1ccc(C(=O)N/C(=C\c2ccccc2)C(=O)NCC2CCCO2)cc1 (centres undefined),0%,-29,0,-2.7,6,
COc1ccc(OC)c(C(=O)CSc2nc3cccnc3n2C)c1,9%,8,7,2.2,2,
CCC(C)CCN1C(Nc2ccccc2)=NC[C@@H]1C (some centres undefined),.,.,.,-2.4,-12,
O=C(CSc1ncn[nH]1)NNC(=O)c1ccccc1,.,.,.,-1.5,-6,
COc1ccc(C(=O)OCc2nnc(-c3ccccc3)o2)cc1S(=O)(=O)N1CCOCC1,.,.,.,0.2,-12,
O=C(OCC(=O)N1CCCc2ccccc21)c1cc(Br)ccc1O,.,.,.,-2.2,-10,

# Random excerpt: 4 entries already listed, in no set order.
SMILES,Mtb H37Rv,YopH PTP inh,Arbovirus inh,RecA intein inh,Mtb bLac sens,others
Cc1ccc(C(=O)N/C(=C\c2ccccc2)C(=O)NCC2CCCO2)cc1 (centres undefined),0%,-29,0,-2.7,6,
CC1CCCC(C(=O)O)N1C(=O)CCSSCCC(=O)N1C(C)CCCC1C(=O)O (centres undefined),-2%,-13,4,-0.6,3,
COc1ccc(OC)c(C(=O)CSc2nc3cccnc3n2C)c1,9%,8,7,2.2,2,
O=C(CSc1ncn[nH]1)NNC(=O)c1ccccc1,.,.,.,-1.5,-6,

# The list continues:
SMILES,Mtb H37Rv,YopH PTP inh,Arbovirus inh,RecA intein inh,Mtb bLac sens,others
Nc1nc(-c2cccnc2)nn1C(=O)CCc1ccccc1,-11%,-22,.,5.4,-2,
CC(Sc1nncs1)C(=O)NC1CCCCC1C (centres undefined),.,.,.,2.1,?,
Cc1ccc(C2=NOC3(CC(=O)N(c4ccc(C)cc4)C3=O)C2)cc1 (centres undefined),0%,.,.,.,-2,
Cc1ccc(NC(=S)N/N=C2\CC3CC=CC23)c(C)c1 (centres undefined),3%,.,2,.,0,
COc1ccc(Nc2ncnc3sc(C)cc23)cc1,.,.,.,0.5,?,
O=C(Cn1cncn1)N/N=C/c1ccncc1,-5%,.,.,-1.1,-10,
O=[N+]([O-])c1cccnc1Oc1ccccc1F,1%,.,.,-5.5,3,
CCOC(=O)C(C)N1C(=O)S/C(=C/c2cc(C)n(-c3ccccn3)c2C)C1=O (centres undefined),2%,-18,-3,-1.6,92,
COc1ccc(CCN2C(=O)CCC2(C)C(=O)NCc2cccnc2)cc1OC (centres undefined),-13%,7,3,-0.7,-1,
COC(=O)c1ccccc1NC(=O)CNC(=O)c1ccc(OC)c(OC)c1,1%,.,1,0.7,-7,
COCCOC(=O)/C(=C/c1ccc(OC(=O)c2ccccc2)cc1)C(C)=O,-5%,-19,-3,3.3,-6,
CC(C)c1ccc(C(=O)CC2(O)C(=O)N(CN3CCOCC3)c3ccccc32)cc1 (centres undefined),6%,-25,-1,-0.6,-8,
CN(C)CCCN(CCCNC(=O)/C=N/O)Cc1ccccc1,-4%,-9,-1,0.7,0,
O=C(O)c1cccc(NC2=C(n3nnc4ccccc43)C(=O)c3ccccc3C2=O)c1,1%,.,.,78*,7,
O=C(NCCCn1ccnc1)c1ccc(Cl)cc1,-8%,.,.,-0.7,-9,
COC(=O)/C=C(\C)NC(=O)c1ccccc1Cl,0%,-1,-3,-1.0,0,
Cc1cc(C)c(NC(=S)NC(CO)(CO)CO)c(C)c1,0%,.,.,0.2,-3,
CC(C)(C)n1nnnc1C(c1cccnc1)N1CCN(C(=O)c2ccco2)CC1 (centres undefined),-13%,-11,1,0.4,-5,
CC(=O)c1ccc(N2CCN(S(=O)(=O)c3cc4[nH]c(=O)c(=O)[nH]c4cc3C)CC2)cc1,.,.,.,-0.3,-1,
CCOc1ccc2nc(NC(=O)C3CCCN(S(=O)(=O)c4c(C)noc4C)C3)sc2c1 (centres undefined),76%,.,.,.,-3,
Nc1ccc(N2CCN(c3cccc(Cl)c3)CC2)cc1,4%,-37,-28,-0.6,8,
CC(OC(=O)c1ccc(-c2ccc([N+](=O)[O-])cc2)o1)C(=O)NC(N)=O (centres undefined),14%,.,.,-3.5,91,
O=C(Cn1nnc(-c2ccccc2F)n1)Nc1cccc2ncccc12,-4%,-43,3,.,-7,Arbovirus inh repeat=-6
Fc1cc(Br)cc(F)c1NC(=S)N1CCOCC1,.,.,.,-1.5,1,
COc1ccc(/C(C)=N/N2C(C)CCCC2C)c(OC)c1 (centres undefined),.,.,.,2.7,-10,
COCCN(C(=O)COC(=O)c1ccc(C)s1)c1c(N)n(Cc2ccccc2)c(=O)[nH]c1=O,.,.,.,9.5,-6,
CC(C)(C)C(=O)NC1(C(F)(F)F)C(=O)Nc2c1c(=O)[nH]c(=O)n2Cc1ccco1 (centres undefined),.,-9,-1,-0.1,1,
CCC(CC)c1nn2c(N)c(/C=C3\C(C)=Nc4ccccc43)c(=O)nc2s1,-1%,.,.,-5.2,1,
CC1(C)Cc2cccc(OCC(O)CNCc3ccccn3)c2O1 (centres undefined),5%,-36,9,-3.5,7,
O=C(Nc1ccccc1C(=O)O)c1cc(S(=O)(=O)N2CCOCC2)c(Br)s1,.,.,.,0.9,4,
N#CCSc1nc2ccc(N3CCOCC3)cc2c(=O)n1CCc1ccccc1,2%,-7,5,2.5,10,
O=C(CCCOc1ccccc1)NN1C(=O)NC2(CCCCC2)C1=O,.,.,.,-0.2,-4,
CCCc1nnc(SCC(=O)N2C(C)CCCC2C)n1CC (centres undefined),-6%,.,7,.,-16,
Nc1ccccc1Sc1ccc(C(F)(F)F)cc1[N+](=O)[O-],-6%,.,.,7.5,-8,
COc1cc(C2Nc3ccccc3C(=O)N2c2ccccc2OC)ccc1O (centres undefined),.,-36,12,-0.6,-8,
COc1ccc(NC(C)=O)cc1NC(=O)c1ccc(Cl)cc1,-1%,.,-5,-2.4,0,
Cc1ccc(S(=O)(=O)N2CCC(C(=O)C3C(=O)CCCC3=O)CC2)cc1,4%,.,1,3.8,-1,
CCOc1cc(/C=C2\CCn3c2nc2cc(Cl)ccc2c3=O)ccc1O,.,.,.,-4.4,-2,
COc1ccc(OCc2cc(C(=O)N3CCCC(OC)C3)no2)c2ccccc12 (centres undefined),.,.,.,35*,0,
CCOC(CNC(=O)CN1C(=O)COc2ccc(S(=O)(=O)N3CCOCC3)cc21)OCC,.,.,.,11,1,
CN1CCc2c(C#N)c(N3CCCCC3)nc(N3CCOCC3)c2C1,2%,-24,.,-2.5,-1,
COc1ccc(CCNC(=O)CSc2ccccn2)cc1OC,-6%,.,-5,.,-15,
COc1ccc(OC)c(-n2c(O)c(/C=C3\C=Nc4ccccc43)c(=O)[nH]c2=O)c1,.,.,.,3.9,2,
CCN(CC(=O)NCc1cccs1)C(=O)c1ccc([N+](=O)[O-])o1,.,.,.,-3.5,98,
Cc1cc(C)n(-c2nc3sc4c(c3c3nnc(SCC(N)=O)n23)CC(C)(C)OC4)n1,3%,5,0,3.2,.,
Cc1ccc(SCC(=O)Nc2cc([N+](=O)[O-])ccc2O)cc1,-4%,.,16,0.0,3,
O=C(NCCc1ccccc1)C1CCN(Cc2cccc3ccccc23)CC1,.,.,.,-2.8,1,
CC(C)NCC(O)COCCOc1ccc(Br)cc1 (centres undefined),8%,-21,5,-5.7,-7,
COc1cc(C2OC(=O)C3C(c4ccc(OC(C)=O)c(OC)c4)OC(=O)C23)ccc1OC(C)=O (centres undefined),.,.,.,0.7,2,
c1ccc(-c2ccc(-c3csnn3)cc2)cc1,6%,-26,0,-0.2,-6,
CN(c1ccc([N+](=O)[O-])cc1C(=O)Nc1ccccc1)C1CCCCC1,-3%,-29,-8,-2.3,-5,
CC(=O)Nc1ccc(C(=O)NNS(=O)(=O)c2ccc(C)cc2)cc1,7%,.,3,-1.5,0,
O=Cc1c(NCc2ccccc2F)c2ccccc2[nH]c1=O,.,.,.,-0.1,-6,
CCCNS(=O)(=O)c1ccc(CCC(=O)NCc2cccnc2)cc1,-5%,-27,4,-0.5,1,
Cc1ccc2c(c1)nnn2C1CCN(CC(=O)N2c3ccccc3CC2C)CC1 (centres undefined),-9%,-16,-3,1.5,5,
O=C1Nc2ccccc2C12OCCCCO2,-8%,-31,7,1.2,-6,
Cc1c(C(=O)Nc2ccc(Cl)cc2)c2ccccn2c1CCc1ccncc1,7%,-17,13,0.4,6,
O=C(O)CCc1ccc(-c2ccc(Br)cc2)n1CC(=O)O,-7%,8,5,-0.5,-4,
CN(C)C(=O)c1ccc(NC(=O)c2ccccc2Sc2ccccc2C#N)cc1,-5%,-21,0,0.1,4,
CCC(C(=O)N1CCN(c2ccccn2)CC1)n1nc(C)n2c(cc3occc32)c1=O (centres undefined),-4%,-35,-6,-2.5,-7,
# More compounds follow.
SMILES,Mtb H37Rv,YopH PTP inh,Arbovirus inh,RecA intein inh,Mtb bLac sens,others
CCOC(=O)N1CCN(C(=O)C(CC)n2nc(C)c3sc4ccccc4c3c2=O)CC1 (centres undefined),0%,-36,-8,-5.0,1,
O=C(Nc1ccccc1C(=O)Nc1ccncc1)c1cccc([N+](=O)[O-])c1,.,.,.,2.4,2,
COC(=O)c1cc(-c2c[nH]c3ccccc23)n[nH]1,8%,7,5,0.4,-5,
CCOc1cc(C(=O)Nc2cc3c(cc2N2CCCC2)n(C)c(=O)n3C)cc(OCC)c1OCC,.,.,.,-4.4,44,
CCn1cnc2c1c(=O)n(Cc1csc(-c3ccccc3)n1)c(=O)n2Cc1ccccc1,4%,-24,-13,.,-2,
CC1CCN(S(=O)(=O)c2ccc3[nH]cc(C(=O)NCCN4CCOCC4)c(=O)c3c2)CC1,.,-15,1,4.7,2,
COc1cc(C(=O)Nc2cc3c4c(c2)CC(=O)N4CCC3)cc(OC)c1OC,.,.,.,23,-8,
O=C(Cc1ncc(C(F)(F)F)cc1Cl)Nc1ccc(F)cc1,-11%,-34,6,1.7,-7,
O=[N+]([O-])c1ccc(Cl)c(S(=O)(=O)Nc2ccc(-c3ccc(N4CCCC4)nn3)cc2)c1,.,.,.,-1.5,-6,
CCC1(C)OCC(Cn2c3ccccc3c3ccccc32)O1 (centres undefined),79%,-13,-12,-2.9,5,
CCOC(=O)CCNC(=O)CNC(=O)OCc1ccccc1,-12%,-47,-3,-2.1,3,
O=C(c1cc(COc2ccccc2)on1)N1CCCC(OCc2cccnc2)C1 (centres undefined),.,.,.,2.2,?,
O=C(NC(=S)Nc1ccc2c(c1)OCCO2)c1cccc(Br)c1,6%,-2,10,6.6,5,
CCOc1ccc(N(CC(=O)NCCc2ccccc2)C(=O)CCC(=O)Nc2cc(C)ccn2)cc1,.,.,.,-5.2,0,
CCn1c(C(=O)O)c(CC(=O)Nc2ccccc2F)c2ccccc21,-6%,.,1,-2.0,4,
CC(NC(=S)NNS(=O)(=O)c1cccc([N+](=O)[O-])c1)c1ccccc1 (centres undefined),.,.,.,7.3,-10,
CCOC(=O)c1c(NC(=O)CSc2nc3cccnc3n2C)sc(C(C)=O)c1C,-8%,-30,6,4.2,1,
CCOc1cc(S(=O)(=O)NCc2ccc3c(c2)OCO3)ccc1F,12%,34,3,.,0,
CC(=O)c1ccc(OCC(O)Cn2nnc3ccccc32)cc1 (centres undefined),0%,-45,2,0.1,5,Arbovirus inh repeat=5
COc1ccc(C2=CC(c3cc(OC)c(OC)c(OC)c3)NC(=S)N2)cc1 (centres undefined),13%,-20,-27,-8.9,-7,
